Env fusion inh: inhibitors of HIV-1 Env-driven cell-cell fusion, primary screen, HeLa-JRFL effector, CEM21 target cells, luciferase; AID 651610, 2012; 360,000 compounds, 1.1% hits; inhibition, % at 12.3 µM;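 active = mean replicate inhibition score of at least 50 and every replicate individually at or above 50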;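 also: 0% = plate neutral controls and 100% = maraviroc near 300 nM; one replicate is shown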
PABP polyA inh: PABP poly(A) RNA binding inhibitors, primary screen, biochemical, fluorescence polarization, uHTS. Polyadenylate-binding protein 1 (Homo sapiens), P11940. inhibition, % at 35 µM. 290,000 compounds, 1% hits. AID 2014, 2009;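 active = 50% or more with normal probe brightness, or confirmed in later tests; about a fifth of its hits are not listed in these tables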;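 also: calls also rest on retests at 20 µM and on dose response follow-up; controls were probe without protein and protein plus probe with vehicle; some compounds called inactive have numbers as strong as hits; many hits fall short of the cut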
MT1-MMP act inh: blockers of MT1-MMP proenzyme processing, primary screen, HT1080 RFP-PRO-GFP cells, GFP/RFP fluorescence. GFP/RFP ratio fluorescence, overnight; percent of plate control window, DMSO zero. GFP/RFP ratio change, % at 20 µM. 360,000 compounds, 0.061% hits. AID 651647, 2012;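 active = GFP/RFP ratio change of at least 30% with cell ATP level not reduced by more than half and red fluorescence within 50% of control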; also: strong numbers were not always called active
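Test system: HT1080 cells expressing an RFP-PRO-GFP fluorescent reporter construct / Compound dosing: single-point 20 µM compound, 1% DMSO / Schedule: cells overnight before dosing, compound overnight, 37 °C, 5% CO2 / Evaluation: GFP/RFP fluorescence ratio / Control set: DMSO and RFP-L50D-GFP cell wells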
Yeast UUG start: modulators of yeast start codon fidelity, primary screen, whole organism, S. cerevisiae, single point, plate reader; S. cerevisiae UUG-firefly luciferase reporter, luminescence/redox ratio; activity score, % at 18.7 µM; 350,000 compounds, 0.13% hits;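 active = replicate mean at a twofold rise or more, about +100% in these data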;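 also: firefly luciferase made from a UUG start codon reports start codon fidelity; reporter light over untreated wells divided by growth signal over untreated wells; some hits fall short of that in this replicate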
CSC inhib: cancer stem cell viability inhibitors, primary screen, luminescence; cancer stem cell-like cells viability; 300,000 compounds, 1.1% hits; inhibition, % at 7.5 µM;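 active = mean at 75% or more and at least half the replicates too; tested in HMLE shEcad cells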;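 also: 0% = median of negative and 100% = median of positive control wells; the first replicate is given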
Rce1 inhib: yeast Rce1p protease inhibitors, primary screen, biochemical, fluorescence, cell-free homogeneous. CAAX prenyl protease 2 (Saccharomyces cerevisiae (strain ATCC 204508 / S288c)), Q03530. yeast membranes, quenched prenylated peptide cleavage fluorescence. calls only. 290,000 compounds, 0.27% hits. AID 2563, 2010;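 active = fall in fluorescence gain of 50% or more versus controls, with final raw signal at or below 3038400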;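 also: plate controls were neutral control wells for no effect and wells lacking membranes for full effect; tested at 10 µM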
Target sequence (Q03530 whole entry, looked up): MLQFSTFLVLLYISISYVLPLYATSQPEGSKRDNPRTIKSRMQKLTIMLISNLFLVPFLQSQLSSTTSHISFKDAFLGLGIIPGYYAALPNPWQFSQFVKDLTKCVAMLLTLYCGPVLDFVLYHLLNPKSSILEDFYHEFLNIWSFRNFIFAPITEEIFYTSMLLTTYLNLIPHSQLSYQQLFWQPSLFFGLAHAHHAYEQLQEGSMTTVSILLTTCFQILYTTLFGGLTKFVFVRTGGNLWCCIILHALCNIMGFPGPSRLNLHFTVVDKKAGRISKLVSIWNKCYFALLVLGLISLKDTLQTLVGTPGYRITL
eIF4H inh: human eIF4H binding inhibitors, primary screen, translation initiation inhibitor project, biochemical, uHTS, fluorescence polarization. Eukaryotic translation initiation factor 4H (Homo sapiens), Q15056. eIF4H fluorescence polarization binding assay. inhibition, % at 35 µM. 290,000 compounds, 0.94% hits. AID 2012, 2009;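 active = 50% or more with normal probe brightness, or confirmed in later tests; about a fifth of its hits are not listed in these tables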;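 also: calls also rest on retests at 20 µM and on dose response follow-up; 0% = protein and probe with vehicle and 100% = probe without protein; strong numbers were not always called active; many hits fall short of the cut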
eIF4H inh retest: recorded beside eIF4H inh, whose call it bears; inhibition, %; compound at 20 µM; confirmation average;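 mean of two retest wells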
PABP polyA inh retest: further read-out of PABP polyA inh, marked with its call; inhibition, %; compound at 20 µM; confirmation repeats;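 mean of two retest wells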
MT1-MMP act inh RFP: also measured in MT1-MMP act inh; calls as there; RFP signal change, %; measured here: RFP expression control read;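 0 = vehicle wells; hits needed this value within 50% of zero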
* = called active by the depositor; i = inactive; · = not tested or not shown.

SMILES | Env fusion inh | PABP polyA inh | MT1-MMP act inh | MT1-MMP act inh RFP | Yeast UUG start | CSC inhib | Rce1 inhib | eIF4H inh | others
CCOC(=O)C1=C(CS(=O)(=O)c2ccc(C)cc2)NC(=O)NC1c1ccc(O)c(OC)c1 (stereo unspecified) | 2 | -7 | 7 | 2 | -2 | -3 | i | 12
CC(=O)N1c2cc3ccccc3cc2N(C(C)=O)c2cc3ccccc3cc21 | -55 | · | -1 | 3 | -20 | · | · | ·
CC(=O)c1c(C)n(-c2ccccc2)c2ccc(OCC(O)CN3CCOCC3)cc12 (stereo unspecified) | · | 1 | 0 | 2 | · | 59 | i | 8
O=C(Nc1nc2ccccc2s1)c1ccc([N+](=O)[O-])o1 | -51 | 6 | 4 | -8 | · | 33 | i | 1
CCOC(=O)C1CCN(C(=O)COc2ccc(S(=O)(=O)N3CCOCC3)cc2C)CC1 | -3 | 5 | 0 | 0 | 1 | -12 | i | 3
Cc1cc(C)nc(NN=C(c2ccccc2)c2ccccc2)n1 | 1 | 13 | -4 | -1 | -38 | -15 | i | -2
N#C/C(=C\c1c(F)cccc1Cl)S(=O)(=O)c1ccccn1 | 4 | 17 | -12 | 3 | · | -3 | i | 0
COc1ccc(S(=O)(=O)N2CCOCC2)cc1NC(=O)c1ccccc1C | 4 | 5 | 1 | -1 | -20 | -8 | i | -4
COc1ccc(C)cc1NC(=O)CCCN1C(=O)C(c2ccccc2)Oc2cccnc21 (stereo unspecified) | 31 | 2 | 0 | -1 | · | -8 | i | 3
O=C(Nc1ccc(C(=O)N2CCCCC2)cc1)C1CCCC1 | -31 | · | 1 | 0 | -9 | · | · | ·
CN1CCN(C2=NCCO2)CC1 | 0 | 1 | -4 | 5 | -14 | -6 | i | 7
CCOc1ccccc1C(=O)NCC(=O)NCCc1ccc(S(N)(=O)=O)cc1 | 16 | 7 | 1 | 6 | -28 | -6 | i | 1
C(=C\c1ccccc1)/CN1CCN(C(c2ccccc2)c2nnnn2C2CCCCC2)CC1 (stereo unspecified) | 24 | · | 2 | -5 | 1 | · | · | ·
CC(NC(=O)CCc1nnc(-c2ccc(-c3ccccc3)cc2)o1)c1nccs1 (stereo unspecified) | 11 | -6 | 8 | -2 | · | -6 | i | 3
Cc1cccc(OCC(=O)Nc2ccc3c(c2)nc(CN2CCCCC2)n3C)c1 | -19 | -2 | 0 | -5 | · | 38 | i | 2

Four structures already listed, ordered by count of non-hydrogen atoms, lowest first:
SMILES | Env fusion inh | PABP polyA inh | MT1-MMP act inh | MT1-MMP act inh RFP | Yeast UUG start | CSC inhib | Rce1 inhib | eIF4H inh | others
Cc1cc(C)nc(NN=C(c2ccccc2)c2ccccc2)n1 | 1 | 13 | -4 | -1 | -38 | -15 | i | -2
CC(=O)N1c2cc3ccccc3cc2N(C(C)=O)c2cc3ccccc3cc21 | -55 | · | -1 | 3 | -20 | · | · | ·
CCOC(=O)C1=C(CS(=O)(=O)c2ccc(C)cc2)NC(=O)NC1c1ccc(O)c(OC)c1 (stereo unspecified) | 2 | -7 | 7 | 2 | -2 | -3 | i | 12
C(=C\c1ccccc1)/CN1CCN(C(c2ccccc2)c2nnnn2C2CCCCC2)CC1 (stereo unspecified) | 24 | · | 2 | -5 | 1 | · | · | ·

(further entries)
SMILES | Env fusion inh | PABP polyA inh | MT1-MMP act inh | MT1-MMP act inh RFP | Yeast UUG start | CSC inhib | Rce1 inhib | eIF4H inh | others
COc1ccc(NC(=O)C2(C)Cc3c(-c4cccc(C(N)=O)c4)ccnc3O2)cc1OC (stereo unspecified) | -4 | · | 4 | -2 | 4 | · | · | ·
O=C(Nc1ccccc1Cl)C1CCCN(S(=O)(=O)c2ccc(F)cc2)C1 (stereo unspecified) | -3 | 0 | -1 | 0 | -3 | 8 | i | -8
CSc1ccc(-c2cc3c(c4c2ccn4C)C2CCC3C2)cc1 (stereo unspecified) | 11 | · | 4 | -1 | -5 | · | · | ·
Cc1cc2cc(CN3C(=O)c4ccccc4C3=O)ccc2[nH]1 | -7 | -2 | 4 | 5 | -19 | -1 | · | 32
CCN(CC)CCNC(=S)Nc1ccc2nc(N3CCOCC3)cc(C)c2c1 | 1 | -16 | 12 | 7 | -18 | 2 | i | -6
Cc1ccc(CNC(=O)C2CCCN(c3nc4ccsc4c(=O)s3)C2)cc1 (stereo unspecified) | 17 | -15 | -2 | -1 | · | -6 | i | -4
COC(=O)c1cc(NC(=O)CCc2c(C)nc3ncnn3c2C)cc(C(=O)OC)c1 | -4 | -5 | -20 | -4 | 1 | 2 | i | -4
CN1CCC(N(C)S(=O)(=O)c2ccc(NC(=O)COc3ccc(Br)cc3Cl)cc2)CC1 | 19 | · | 4 | 0 | · | · | i | ·
Cc1nc(N)sc1C(=O)N/N=C/c1c[nH]c2ccccc12 | 30 | 0 | 2 | -4 | -22 | -1 | i | 2
CC(C)CCNC(=O)C1CC(=O)N(CCc2ccccc2)C1 (stereo unspecified) | 0 | 6 | -1 | 1 | 18 | -12 | i | 3
COC(=O)c1ccccc1NC(=O)NN1CCN(C)CC1 | 8 | 1 | -2 | -1 | -6 | -6 | i | -3
O=C(CSc1cccc[n+]1[O-])Nc1cc(Cl)ccc1[N+](=O)[O-] | -15 | · | 2 | 6 | · | -19 | · | ·
CCOC(=O)CCCCC(=O)c1[nH]c(=O)[nH]c1CSc1nnc2c3cc(Br)ccc3n(C)c2n1 | · | -9 | · | · | · | -1 | i | -2
CCOC(=O)c1ccccc1NC(=O)c1cc(S(=O)(=O)N2CCOCC2)ccc1F | · | 2 | 1 | -3 | -5 | -3 | · | -8
Cc1cc(NC(=O)CCC(=O)N(c2ccc(F)cc2)C(C(=O)NC2CCCC2)c2ccccc2)no1 (stereo unspecified) | 26 | -5 | -1 | 2 | -8 | · | i | 6
COCCNC(=S)NC(=O)c1ccc(C(C)(C)C)cc1 | -19 | 1 | -3 | -1 | · | 2 | i | -4
CC(=O)C1=C(O)C(=O)N(c2ccc(O)cc2)C1c1ccccc1[N+](=O)[O-] (stereo unspecified) | -11 | 6 | 1 | 8 | -7 | -2 | i | -6
O=C(NCc1ccc2c(c1)OCO2)c1cc(-c2ccncc2)nc2ccccc12 | 11 | 9 | 4 | -4 | -16 | -17 | i | 2
O=C(COC(=O)c1cc(-c2ccccc2)nc2ccccc12)NCC1CCCO1 (stereo unspecified) | -1 | 6 | 3 | 4 | · | 0 | i | 8
C/C=C(/C)C(=O)Nc1cccc(C2=NOC3(C2)C[C@H](C(N)=O)N(C(=O)COc2ccc(Cl)cc2)C3)c1 (stereo partly specified) | -12 | 3 | 0 | -2 | 15 | 11 | i | -13
ClC(Cl)(c1nnnn1-c1ccccc1)c1nnnn1-c1ccccc1 | -7 | 0 | 0 | 0 | -40 | 56 | · | -4
COc1ccc(C(=O)C2CCCN(C(=O)c3ccc4nccnc4c3)C2)c(C)c1 (stereo unspecified) | -8 | 3 | 1 | 0 | -6 | 3 | i | 5
C#CCOc1ccc(CNC[C@H]2O[C@@H](n3cnc4c(N)ncnc43)[C@H](O)[C@@H]2O)cc1 | -19 | · | 1 | 7 | -7 | · | · | ·
O=C1c2ccccc2C(O)N1Cc1ccccc1 (stereo unspecified) | · | 6 | 1 | 3 | -6 | · | i | -6
CCOC(=O)C(NCc1ccco1)(NC(=O)c1ccccc1)C(F)(F)F (stereo unspecified) | -36 | -10 | 0 | 3 | -4 | -1 | i | -7
CC(C)Cc1nnc(NC(=O)c2ccc3c(c2)OCCO3)s1 | -87 | · | 3 | -4 | -26 | · | · | ·
COc1ccc(CN(C)C(=O)c2cnc(C)cn2)c(OC)c1OC | 5 | -6 | -1 | -3 | -15 | -2 | i | -5
Cc1ccccc1NCN1C(=O)C2C3C=CC(C3)C2C1=O (stereo unspecified) | · | -1 | 1 | 3 | -3 | -1 | i | 4
CCOc1ccc(-c2cc(CCCC(=O)NCCCOC)no2)cc1 | 30 | -11 | -2 | -2 | -4 | · | i | -3
COc1cccc(C(=O)NNC(=O)C(=O)Nc2cccc(Cl)c2C)c1 | -28 | -2 | · | · | -16 | · | i | 5
Cc1ccc(CS(=O)(=O)Cc2ccc(C(=O)NCCCN3CC(C)CC(C)C3)o2)cc1 (stereo unspecified) | 13 | · | -2 | -1 | -9 | -9 | i | ·
COc1ccc(CCN(Cc2nc3ccccc3c(=O)[nH]2)C(=O)c2ccco2)cc1 | -61 | -12 | 0 | 1 | -17 | · | i | 8
O=C(NCc1ccccc1)C(=O)c1cn(CC(=O)N2CCOCC2)c2ccccc12 | 2 | -1 | -1 | 3 | -8 | -3 | i | -7
CN(CC(=O)N1CC=C(c2ccccc2)CC1)S(=O)(=O)c1ccc2c(c1)c(=O)n(C)c(=O)n2C | -13 | 6 | -1 | 1 | 8 | -12 | i | 5
Cc1cc(C)cc(NC(=O)Nc2ccc(N3CCCCC3)cc2)c1 | -25 | 3 | 4 | -3 | -15 | 26 | i | 6
CCN(CC(=O)NCc1ccc(F)cc1)C(=O)c1cccc(S(=O)(=O)N(C)c2ccc(OC)cc2)c1 | 3 | · | 3 | -7 | 4 | · | · | ·
O=C(Nc1ccc(-c2csc(Nc3ccc(Cl)cc3)n2)cc1)c1ccccc1 | 30 | · | 13 | -2 | -12 | -3 | · | ·
COc1ccccc1NC(CC(=O)c1ccccc1)C(=O)OCC(=O)c1ccc(F)cc1 (stereo unspecified) | -26 | 1 | -1 | 4 | · | -4 | i | -10
O=c1cnn(Cc2c(Cl)cccc2Cl)c2ccccc12 | 3 | -6 | 0 | 3 | -5 | -13 | i | -4
Cc1ccc(C(=O)Nc2ccc(NC(=O)c3ccccc3Cl)c(C)c2)cc1 | -35 | · | 2 | 0 | -17 | · | · | ·
O=C(Nc1ccc2cn[nH]c2c1)c1ccccc1F | -102 | 1 | 1 | 2 | · | 4 | i | 2
CCOC(=O)C1=C(c2ccccc2)N=C2SCC(=O)N2C1c1ccc(O)c(OC)c1 (stereo unspecified) | · | -8 | 0 | 2 | · | -5 | i | -6
CCOC(=O)C1CCN(C(=O)COc2ccc(S(=O)(=O)NC(C)C)cc2Cl)CC1 | · | 3 | 0 | 1 | -28 | 10 | i | 4
COC(=O)CCC(=O)OC1(C)C(=O)C=C2C=C(C3CC3)N(CCc3ccccn3)C=C2C1=O (stereo unspecified) | 6 | 31 | -3 | 5 | -6 | -4 | i | 66 | eIF4H inh retest=23;PABP polyA inh retest=35
CN(CC(=O)Nc1ccc(Cl)cc1)CC(=O)Nc1sc2c(c1C(N)=O)CCC2 | 7 | · | -1 | -4 | -9 | · | · | ·
COc1ccc(CCn2nnc3ccccc3c2=O)cc1OC | -52 | · | -1 | -4 | -6 | · | · | ·
CC1CC(C)CN(CCCNC(=O)c2ccc(CS(=O)(=O)Cc3ccccc3F)o2)C1 (stereo unspecified) | · | -3 | 3 | 8 | 9 | · | i | -3
O=C1CCCC2=C1C(c1cccs1)Nc1ccccc1N2 (stereo unspecified) | 87* | -2 | -3 | -4 | · | 3 | i | -10
CC(=O)Oc1cccc(C2C3=C(CC(C)(C)CC3=O)Nc3ccccc3N2C(C)=O)c1 (stereo unspecified) | 3 | -1 | -1 | -2 | -20 | -3 | i | 6
CSCCC(NS(=O)(=O)c1ccc2[nH]c(=O)c(=O)[nH]c2c1)C(=O)O (stereo unspecified) | -22 | 20 | 1 | 5 | -10 | 2 | · | -5

Compound activity (PubChem BioAssay)
